Source: PubChem BioAssay (ICCB-Longwood Screening Facility, Harvard Medical School)
RVFV N-RNA FP: blocks Rift Valley Fever Virus nucleoprotein binding to RNA | P21700 | RVFV N-RNA binding, fluorescence polarization; active compounds read low | % bound, % (concentration not given with the values) | actives 0.1% (n = 20,000) | AID 651828;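 active means between 0 and 58% in either replicate with normal brightness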;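 further: 100 nL library stock added to about 12 µL; 100% = protein and probe without compound and 0% = probe alone; numbers are from one replicate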
Target sequence (P21700 whole entry, looked up): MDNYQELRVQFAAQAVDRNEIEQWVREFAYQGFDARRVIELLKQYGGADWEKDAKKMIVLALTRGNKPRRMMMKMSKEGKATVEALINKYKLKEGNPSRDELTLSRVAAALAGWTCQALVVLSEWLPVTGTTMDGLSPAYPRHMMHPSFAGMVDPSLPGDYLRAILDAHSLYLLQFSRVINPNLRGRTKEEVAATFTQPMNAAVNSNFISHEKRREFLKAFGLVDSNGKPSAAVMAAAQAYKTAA
An asterisk follows results filed as active; & = joins results of further samples.

SMILES | RVFV N-RNA FP
CCn1c(/C=N/NC(=O)Cc2ccccc2)nc2ccccc21 | 94.5
O=C(NCCNc1nccc(C(F)(F)F)n1)Nc1ccccc1Cl | 91.7
Cc1cc(Br)c2c(c1)C(O)(C1C(=O)Nc3ccccc31)C(=O)N2C (stereo unspecified) | 99.1
CC(Sc1nnc(-c2c[nH]c3ccccc23)n1C)c1ccccc1 (stereo unspecified) | 96.8
c1ccc2c(N3CCNCC3)cccc2c1 | 88.4
Clc1ccc(C2N=C(c3cnccn3)NN2)cc1 (stereo unspecified) | 93.0
O=P1(NCCCl)OCCCN1CCCl (stereo unspecified) | 93.5
COC(=O)c1ccccc1S(=O)(=O)NC(=O)Nc1nc(C)c2c(n1)CCSC2 | 95.4
COc1cc(C(=O)Nc2nnc(CC(=O)N3CCOCC3)s2)cc(OC)c1OC | 97.0
O=C(Cc1ccc(Cl)cc1)NCCS(=O)(=O)N1CCN(c2ccccc2)CC1 | 95.9
Cc1ccc(Cn2cccc(C(=O)N(C)c3ccccc3)c2=O)cc1 | 100.1
CCc1c(C)sc(NC(=O)CC#N)c1C#N | 98.1
COC(=O)CCS(=O)(=O)c1ccc(Cl)cc1 | 96.3
O=C(O)CCNC(=O)Nc1cccc2ccccc12 | 97.6
Cc1cnn(C(=S)NCCc2ccccc2)c1 | 92.0
O=C1CC(c2ccccc2)Cc2[nH]ncc21 (stereo unspecified) | 94.0
COc1cccc(N/C=C(\C#N)C(=O)N2CCOCC2)c1 | 90.1
CCc1nnc(N2C(=O)c3ccccc3C2(O)c2ccccc2)s1 (stereo unspecified) | 98.6
CC(O)Cc1n[nH]c(=S)n1-c1ccccc1 (stereo unspecified) | 93.2
COC(=O)/C(C#N)=C/c1cc(C(=O)OC)n(-c2ccc(Cl)cc2)c1 | 91.1
Cc1cc(C)cc(NC(=O)c2cc(-c3ccco3)nc3ccccc23)c1 | 101.3
O=c1[nH]cnc2c1ncn2COCCO | 90.7
C[C@]12CC[C@H](O)CC1=CC[C@@H]1[C@@H]2CC[C@]2(C)C(=O)CC[C@@H]12 | 98.3&96.4
CC(=O)Nc1ccc2c(c1)sc(=NC(=O)c1cccs1)n2C | 108.3
C=CCn1c(CNC(=O)c2cccs2)nnc1SCC(=O)Nc1nc2ccccc2s1 | 98.8
(more compounds)
SMILES | RVFV N-RNA FP
CCOC(=O)c1csc(NC(=O)c2cccs2)n1 | 92.5
Cc1noc(C)c1C(=O)O/N=C1\CCSc2ccc(F)cc21 | 93.6
Cc1cn(S(=O)(=O)c2csc(Cl)c2Br)nc1-c1cccs1 | 96.3
CCn1c(SCC(=O)Nc2nc(-c3ccccc3)c(-c3ccccc3)o2)nc2ccccc2c1=O | 98.7
COC(=O)c1scc(C)c1NNC(=O)C(F)(F)F | 92.0
Cn1c(=O)c2c(NCc3ccccc3)cc(=O)n(C)c2n(C)c1=O | 98.5
COC(=O)C(C)Oc1cc(O)c2c(=O)cc(-c3ccccc3)oc2c1 (stereo unspecified) | 97.3
NCCS(=O)(=O)O | 96.5
CCCOc1ccc(C(=O)NCC2CCCO2)cc1 (stereo unspecified) | 94.0
COC(=O)c1nnn(-c2nonc2N)c1CN(C)C | 90.6
Cc1cc(N/C=C(\C#N)C(=O)c2ccc(Cl)cc2)no1 | 82.7
CN1C(=C(C#N)C#N)N(N)c2ccccc21 | 102.0
CC(C)(C)C(=O)N(Cc1ccccc1)c1ccccn1 | 94.6
O=C(Oc1cc(=O)oc2c1c(=O)n1c3c(cccc23)CC1)c1ccc(F)cc1 | 80.7
CCC(C)(C)NC(=O)c1cccc(F)c1 | 71.9
Cc1nnc(NC(=O)c2ccc3c(c2)C(=O)N(Cc2cccnc2)C3=O)s1 | 87.4
O=C(COc1ccccc1)NCCSC1CCCCC1 | 94.9
Cc1cc(C)nc(SCc2ccccc2F)n1 | 90.6
COC(=O)CN(Cc1ccccc1)S(=O)(=O)c1ccc(F)cc1 | 90.8
CC(C)(C)CC(=O)NC(=S)NC1CCCCC1 | 103.1
O=C(Cn1nc(-c2ccccc2)ccc1=O)Nc1ccc(F)cc1 | 92.9
CCC(C)C(=O)Nc1ccc(-c2nc3ccccc3o2)cc1 (stereo unspecified) | 100.5
CCCn1c(-c2ccncc2)n[nH]c1=S | 99.0
Brc1ccc([C@H]2CN3CCSC3=N2)cc1 | 96.2
Cc1cccc(C(=O)NC(=S)Nc2ccc(N3CCN(C)CC3)cc2)c1 | 98.3
Following part
SMILES | RVFV N-RNA FP
CC1(C)C(=O)C2(C(=O)NCCc3ccccc3)CCC1C2 (stereo unspecified) | 97.1
COC(=O)C1(C)Cc2ccc(Br)cc2C(=O)O1 (stereo unspecified) | 95.3
CCCOc1ccc(C2C(C(=O)/C=C/c3ccco3)=C(O)C(=O)N2CCCN2CCOCC2)cc1 (stereo unspecified) | 100.9
NC(=O)C12CCCC(CCC1)C2 | 93.0
CC1CC(C)CN(S(=O)(=O)c2ccc(C(=O)Nc3nnc(-c4ccccn4)o3)cc2)C1 (stereo unspecified) | 92.7
Cc1onc2c(=O)[nH]nc(-c3ccccc3)c12 | 100.9
CN(C)c1ccc(/C=N/NC2=NCCN2)cc1 | 105.0
NNC(=O)c1nn(-c2ccccc2)c(=O)c2c(N)scc12 | 100.4
CN1C(=S)NNC(=O)c2cc(Cl)ccc21 | 101.9
O=C(O)CC(CP(c1ccccc1)c1ccccc1)C(=O)O (stereo unspecified) | 105.8
CSc1ccccc1NC(=O)CCn1c(=O)sc2ccccc21 | 91.3
CN(CCC#N)C(=O)c1cc(Cl)ccc1Cl | 91.1
CC(=O)Oc1ccc(-c2csnn2)cc1 | 91.7
Cc1c(Br)cc(C(=O)N2CCCC2)c(C)c1C | 93.9
CC(=O)N1c2ccccc2Oc2cc3ccccc3cc21 | 100.7
CC1CCc2nc(NC(=S)NCc3ccco3)sc2C1 (stereo unspecified) | 95.6
Cc1c(SCCO)c(=O)[nH]c2cc3c(cc12)OCO3 | 91.2
Cc1ccc(C2C3=C(CC(C)(C)CC3=O)OC3=C2C(=O)CC(C)(C)C3)o1 | 104.1
Cc1csc(N)c1C#N | 89.5
Cn1cccc1C1Nc2ccccc2NC2=C1C(=O)CC(C)(C)C2 (stereo unspecified) | 88.7
O=S1(=O)N(CCN2CC=C(c3c[nH]c4cc(F)ccc34)CC2)c2cccc3c2N1CCC3 | 105.8
CCOc1cc(-c2nnc(-c3ccco3)o2)cc(OCC)c1OCC | 114.7
Cc1ccc(S(=O)(=O)N(CC(=O)NCc2ccccc2)C(=O)N2CCN(C)CC2)cc1 | 95.4
CC(C)c1cc(NC(=O)C(C)(C)C)cc(C(C)C)c1O | 99.5
COc1cccc(-c2ccc(SCC(=O)N3CCOCC3)nn2)c1 | 92.1
Additional records
SMILES | RVFV N-RNA FP
CCn1c(SCCc2ccccc2)nnc1-c1nnc(SCCc2ccccc2)n1CC | 112.6
CCC(CC)NC(=O)/C=C/c1ccccc1 | 101.0
Cc1cc(CN2CCN(CCC#N)CC2)c(O)c(C2(C)CCCCC2)c1 | 88.1
CCN1C(=O)c2ccc(C(=O)NCc3ccccc3)cc2C1=O | 97.8
C=CCSc1nnc(Cn2c(=O)sc3ccccc32)n1-c1ccccc1 | 93.5
C=CCN(CC=C)S(=O)(=O)c1ccc(NC(=O)c2cccnc2)cc1 | 85.0
CN(C)c1ccc(C(=O)N2CCN(C(c3ccccc3)c3ccccc3)CC2)cc1 | 110.8
Cc1ccc(-c2csc(=Nc3c(C)n(C)n(-c4ccccc4)c3=O)n2CCO)cc1 | 96.4
CCCc1cc(=O)n(CC(=O)N2CCCc3ccccc32)c(-n2nc(C)cc2C)n1 | 105.7
O=c1[nH][nH]c2nnc(-c3c(-c4ccccc4)nn4ccccc34)cc12 | 100.6
Cc1cccc(NC(=S)Nn2c(O)c(C)sc2=S)c1 | 89.8
Oc1ccc(O)cc1 | 92.3
O=C(CC12CC3CC(C1)CC(CC(=O)NC1=NCCS1)(C3)C2)NC1=NCCS1 | 98.0
O=C(CCS(=O)(=O)Cc1ccccc1)Nc1ccc2c(c1)OCCO2 | 99.7
Cn1c(=O)c(-c2noc(-c3cccs3)n2)cn(-c2ccccc2)c1=O | 93.4
COc1ccc(C(=O)Nc2ccccc2C(=O)NCCC(=O)O)cc1 | 118.6
N#CCCCSc1ncccc1C(=O)O | 88.4
Cc1ccsc1/C=N/NC(=O)CN1CCSCC1 | 91.9
O=C(/C=C/c1ccco1)Nc1ccccc1F | 101.0
COc1cc(C(=O)NC(=S)N2CCCCCC2)cc(OC)c1OC | 94.6
Cc1cnn2c3c(cnc12)C(=O)c1ccccc1-3 | 90.7
COC(=O)c1ccc(Cn2cnc3c(cnn3-c3ccc(F)cc3)c2=O)o1 | 88.9
CC(C)=CC(=O)Nc1ccccc1C(F)(F)F | 92.6
CC[C@@]1(O)C(=O)OCc2c1cc1n(c2=O)Cc2cc3ccccc3nc2-1 | 95.7&99.3
C=CCN1C(=O)S/C(=C/c2cc(Cl)cc(OC)c2O)C1=O | 78.4

Exported with tabs: entries from further up.
Structure	RVFV N-RNA FP
COc1cccc(-c2ccc(SCC(=O)N3CCOCC3)nn2)c1	92.1
O=C(COc1ccccc1)NCCSC1CCCCC1	94.9

The list continues:
SMILES | RVFV N-RNA FP
CCN(CC)CCNC(=O)c1cc(S(C)(=O)=O)ccc1OC | 101.3
O=C(C1CC1)N1CCN=C1SCc1c(F)cccc1Cl | 93.2
O=S(=O)(c1ccccc1)N1CCC(c2nc3ccccc3[nH]2)CC1 | 97.3
Cc1ccc(C)c(OCCCC(C)(C)C(=O)O)c1 | 96.4&98.5
COc1cccc(OC)c1OC | 91.4
c1c(SSc2cn3c(n2)CCC3)nc2n1CCC2 | 89.6
N#Cc1c(=O)c2ccccc2n2ccccc12 | 95.3
Cc1ccc(S(=O)(=O)N[C@@H](Cc2ccccc2)C(=O)CCl)cc1 | 89.4
CCNC(=S)NC(=NC1CCCC1)Nc1nc(C)cc(C)n1 | 90.3
Cn1ncc(NC(=O)O/N=C/c2ccccc2)c1-n1cccc1 | 96.4
Cc1ccc(C(=O)CC(=O)c2ccccc2O)cc1 | 93.2
O=S(=O)(Cc1ccc(Cl)cc1)Nc1nc2ccccc2s1 | 91.2
CCCCCCCCCCCCCCCCCCOC[C@H](COP(=O)([O-])OCC[N+](C)(C)C)OC | 97.9
Cc1ccc(NC(=O)c2ccco2)c(NC(=O)C(C)C)c1 | 99.2
CC(=O)Nc1cccc(C(=O)NC(C)c2ccccc2)c1 (stereo unspecified) | 88.9
Cc1ccc(S(=O)(=O)/N=C(\CN2CCOCC2)N2CCOCC2)cc1 | 99.1
O=C(NCC1CCCO1)NC(=O)c1ccccc1 (stereo unspecified) | 89.6
CCN(CCN(C)C)Cc1ccc(NC(C)=O)cc1 | 90.5
COc1cccc(/C=N/NC(=O)c2cccc(OC)c2)c1 | 100.7
Nc1nnnn1CC(=O)N/N=C/c1ccc(-c2cccc(Cl)c2)o1 | 96.3
COc1ccccc1-c1noc(-c2cccc(Cl)c2)n1 | 93.4
N/N=C(\c1ccccc1)c1cc(Br)ccc1N | 108.3
CC(=O)Oc1cc(C)c2c(c1)oc(=O)c1ccccc12 | 99.0
COc1cccc2cc(C(=O)NC3=C(C#N)CCC3)c(=O)oc12 | 94.2
O=C(C(=S)N1CCOCC1)c1c[nH]c2ccccc12 | 88.8
Other structures
SMILES | RVFV N-RNA FP
O=C(/C=C/c1ccco1)Nc1ccccc1C(=O)c1ccccc1 | 101.1
CCCCN(C)Cc1nc2ccccc2n1C | 98.0
c1ccc2c(c1)CC(N1CCOCC1)C2 | 101.9
COC(=O)c1sccc1N | 93.4
O=C(O)c1ccc(NC(NC(=O)c2ccco2)C(=O)c2ccccc2)cc1 (stereo unspecified) | 98.1
CCOC(=O)c1cn(Cc2ccc(Cl)cc2Cl)c2cc(C)nn2c1=O | 89.3
O=C(Cc1ccccc1)Nc1ccccc1CO | 85.6
COC(=O)CSc1ncnc2c1cnn2-c1ccccc1 | 100.1
O=C1/C(=C/c2ccccc2)Oc2c1ccc(O)c2CN1CCOCC1 | 52.9*
CCC(CC)C(=O)Nc1cccc(C(=O)NC(C)(C)C)c1 | 94.8
CCN(CC)C(=O)/C(C#N)=C/c1cc(O)c(O)c([N+](=O)[O-])c1 | 95.2
CNC(=O)CN(c1ccccc1)S(=O)(=O)c1ccc(OC)cc1 | 97.7
CC(C)(C)c1cc(C#N)cc(C(C)(C)C)c1O | 90.4
O=C(NCc1ccc2c(c1)OCO2)c1ccc2c(c1)C(=O)N(C1CCCCC1)C2=O | 105.2
CC(=O)NC(c1ccccc1)n1nnc2ccccc21 (stereo unspecified) | 94.0
CCCCSC(=O)Nc1ccccc1 | 100.2
CS(=O)(=O)c1ccccc1-c1nnc(NC(=O)C2CCCCC2)o1 | 94.2
CC(C)N(CCC#N)C(=S)Nc1ccc(S(=O)(=O)N2CCCCC2)cc1 | 89.1
O=c1[nH]c(=S)[nH]c(O)c1N=Nc1ccc(S(=O)(=O)N2CCc3ccccc32)cc1 | 91.8

Molecules from the list above that have a Cl atom:
SMILES | RVFV N-RNA FP
O=C(NCCNc1nccc(C(F)(F)F)n1)Nc1ccccc1Cl | 91.7
Clc1ccc(C2N=C(c3cnccn3)NN2)cc1 (stereo unspecified) | 93.0
O=P1(NCCCl)OCCCN1CCCl (stereo unspecified) | 93.5
O=C(Cc1ccc(Cl)cc1)NCCS(=O)(=O)N1CCN(c2ccccc2)CC1 | 95.9
COC(=O)CCS(=O)(=O)c1ccc(Cl)cc1 | 96.3
COC(=O)/C(C#N)=C/c1cc(C(=O)OC)n(-c2ccc(Cl)cc2)c1 | 91.1
Cc1cn(S(=O)(=O)c2csc(Cl)c2Br)nc1-c1cccs1 | 96.3
Cc1cc(N/C=C(\C#N)C(=O)c2ccc(Cl)cc2)no1 | 82.7
CN1C(=S)NNC(=O)c2cc(Cl)ccc21 | 101.9
CN(CCC#N)C(=O)c1cc(Cl)ccc1Cl | 91.1
C=CCN1C(=O)S/C(=C/c2cc(Cl)cc(OC)c2O)C1=O | 78.4
O=C(C1CC1)N1CCN=C1SCc1c(F)cccc1Cl | 93.2
Cc1ccc(S(=O)(=O)N[C@@H](Cc2ccccc2)C(=O)CCl)cc1 | 89.4
O=S(=O)(Cc1ccc(Cl)cc1)Nc1nc2ccccc2s1 | 91.2
Nc1nnnn1CC(=O)N/N=C/c1ccc(-c2cccc(Cl)c2)o1 | 96.3
COc1ccccc1-c1noc(-c2cccc(Cl)c2)n1 | 93.4
CCOC(=O)c1cn(Cc2ccc(Cl)cc2Cl)c2cc(C)nn2c1=O | 89.3

A portion of the library. The share of hits here may be higher or lower than overall.
